Vif TR-FRET: inhibitors of Vif binding to APOBEC3G peptide, primary screen, biochemical, TR-FRET, GST-Vif 1-94, biotin-A3G peptide, dose response retest (AID 1117319); Virion infectivity factor (Human immunodeficiency virus type 1 group M subtype B (isolate …; inhibition, %, or IC50 in µM where a hit was titrated; TR-FRET GST-Vif / biotin-A3G peptide binding; higher % means a stronger effect; test concentration not given here; strong numbers were not always called active; 260,000 compounds, 0.57% hits;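 active means above the screen mean plus three standard deviations and confirmed in dose response; inconclusive means results disagree or hit not tested in dose response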;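 further: Vif residues 1-94 fused to GST binding biotinylated APOBEC3G peptide 110-148; 0% = full assay without inhibitor and 100% = GST in place of GST-Vif; retest series ran down from 100 µM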
Beta2AR agonist: beta2AR agonists driving receptor internalization, primary screen, cell-based, FAP fluorogen, flow cytometry | Am2.2-beta2AR cells; reference of the scale not given here | response, % (no concentration beside the values) | 340,000 compounds, 0.43% hits | AID 504454, 2011;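 active means response above a set limit, near 3 SD of response in nonfluorescent compounds, cut at about 42% in these data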;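 further: stock transfer was 100 nL into about 11 µL; a reference agonist was the positive control; negative values mostly stem from fluorescent compounds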
ALR H2O2 inh: inhibitors of human ALR sulfhydryl oxidase, primary screen, biochemical, H2O2 detection, HRP-luminol luminescence, single point | purified ALR, DTT oxidation | inhibition, % (no concentration beside the values) | 290,000 compounds, 3.8% hits;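 active means mean and each replicate at 75% or more; inconclusive means only one of the two met; inactive means neither met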;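 further: stock transfer was 7.5 nL into about 7.5 µL; 0% = neutral wells and 100% = wells with inactivated enzyme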
HNF4A DNA FP: change in binding of human HNF4A to DNA, primary screen, biochemical, fluorescence polarization, FITC-DNA; 1 h; activity change, % at 10 µM; 360,000 compounds, 0.3% hits; in the data active means activity change above about 30%, passing the limit was not always enough;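 further: controls were the assay level and a saturating level of protein; the project sought stronger binding though the title names inhibitors; some compounds called inactive have numbers as strong as hits; positive values seem to mean higher polarization but the record does not say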
LANA-H2A inh: blockers of LANA interaction with H2A/H2B – biochemical, FP readout, HTS, primary screen | cell-free LANA-H2A/H2B peptide, fluorescence polarization | AID 2629, 2010 | Protein LANA1 (Human herpesvirus 8 type P (isolate GK18)), Q9QR71 | inhibition, % (concentration not given with the values) | 320,000 compounds, 0.6% hits; in the data active means inhibition mostly above about 10%, no sharp cut-off; inactive means mostly below about 6.7%;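 further: stock transfer was 7.5 nL into about 10 µL; 0% = median of vehicle wells and 100% = median of positive control wells; one replicate is shown; the record names a cut of 25% in any replicate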
Target sequence (Q9QR71 whole entry, looked up): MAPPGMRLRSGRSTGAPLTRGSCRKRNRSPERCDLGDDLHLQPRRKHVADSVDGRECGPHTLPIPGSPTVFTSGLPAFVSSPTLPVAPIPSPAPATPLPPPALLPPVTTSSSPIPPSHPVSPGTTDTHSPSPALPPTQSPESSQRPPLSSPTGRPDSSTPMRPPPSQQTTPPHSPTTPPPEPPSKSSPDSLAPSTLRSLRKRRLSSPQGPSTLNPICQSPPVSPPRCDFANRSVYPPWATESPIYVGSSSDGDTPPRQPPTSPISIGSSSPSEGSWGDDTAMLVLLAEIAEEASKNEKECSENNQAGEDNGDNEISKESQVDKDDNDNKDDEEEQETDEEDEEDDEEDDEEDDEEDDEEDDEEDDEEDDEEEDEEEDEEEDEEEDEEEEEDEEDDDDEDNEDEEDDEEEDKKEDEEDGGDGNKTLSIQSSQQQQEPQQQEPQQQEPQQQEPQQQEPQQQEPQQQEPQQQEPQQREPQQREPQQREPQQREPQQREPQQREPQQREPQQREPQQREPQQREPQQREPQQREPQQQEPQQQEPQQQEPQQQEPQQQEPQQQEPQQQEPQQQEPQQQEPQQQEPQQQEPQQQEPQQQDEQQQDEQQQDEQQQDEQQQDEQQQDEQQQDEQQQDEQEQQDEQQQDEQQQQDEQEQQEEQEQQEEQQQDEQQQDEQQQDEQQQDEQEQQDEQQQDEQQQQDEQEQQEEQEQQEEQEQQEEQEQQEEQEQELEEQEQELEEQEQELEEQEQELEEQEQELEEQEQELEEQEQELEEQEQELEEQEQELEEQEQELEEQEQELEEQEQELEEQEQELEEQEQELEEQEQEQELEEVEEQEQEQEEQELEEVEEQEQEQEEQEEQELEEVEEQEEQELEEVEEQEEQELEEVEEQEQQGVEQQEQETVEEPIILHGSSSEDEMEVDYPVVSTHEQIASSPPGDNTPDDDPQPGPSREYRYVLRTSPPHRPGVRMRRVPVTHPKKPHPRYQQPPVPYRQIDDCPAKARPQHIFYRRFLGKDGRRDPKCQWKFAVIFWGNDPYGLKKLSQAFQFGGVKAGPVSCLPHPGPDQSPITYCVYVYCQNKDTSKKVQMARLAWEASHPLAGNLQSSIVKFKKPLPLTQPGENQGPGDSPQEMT
RanGTP-Imp inh: inhibitors of RanGTP-importin-beta interaction, primary screen, biochemical, FRET, CFP-Ran, YFP-importin-beta, homogeneous. inhibition, % (no concentration beside the values). 300,000 compounds, 1.1% hits. cell-free CFP-Ran/YFP-importin-beta FRET ratio. Ran GTPase (GTP-bound) - importin-beta complex;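 active means most replicates above 15%; inconclusive means exactly half above 15%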;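 further: 0% = DMSO wells and 100% = Ran loaded with GDP instead of GTP; wells of about 40 µL received 100 nL stock; the first replicate is given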
Calb FLC: C. albicans growth inhibition with fluconazole, primary screen, CaCi-2 strain, Alamar Blue fluorescence; 300,000 compounds, 0.57% hits; growth inhibition, % (test concentration not listed); AID 1979, 2009; C. albicans CaCi-2 (fluconazole-resistant clinical isolate) + fluconazole, 48 h;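 active means most replicates above 75%; inconclusive means exactly half above 75%; inactive means most below 75%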;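 further: all wells also contain fluconazole at 8 µg/ml as a sub-toxic cotreatment; 0% = median of DMSO wells and 100% = median of geldanamycin control wells; wells of about 8 µL received 7.5 nL stock; the first replicate is given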
* = called active by the depositor; ? = inconclusive; . = no result given; & = joins results of further samples. Compounds as they come; 6.3% or so of the library scored in one or more.

SMILES | Vif TR-FRET | Beta2AR agonist | ALR H2O2 inh | HNF4A DNA FP | LANA-H2A inh | RanGTP-Imp inh | Calb FLC
CC(=O)NC(C)C(=O)OCC(=O)Nc1ccc(Br)cc1 (centres undefined) | -4%&23% | -13 | -17 | 1.3 | 1.9 | -2.2 | 13
CCOc1ccc(N/C(C)=C\C(=O)c2ccc3c(c2)OCCO3)cc1 | 2% | -3 | -3 | -0.1 | -6.4 | 0.0 | -9
O=C(NC12CC3CC(CC(C3)C1)C2)N1CCCC(CO)C1 (centres undefined) | 5% | -12 | -3 | -2.0 | -2.0 | -1.8 | -10
O=C(Nc1ccc(OCc2ccccc2)cc1)Nc1cccnc1 | -1% | 3 | -4 | -2.5 | -9.1 | 0.0 | 4
COc1ccc(CNC(=O)C[C@H]2C(=O)N(Cc3ccc(OC)cc3)C[C@@H]2Cc2ccccc2)cc1 | . | -1 | -13 | -1.2 | -2.2 | 1.0 | 3
O=C(CNc1ccc(Cl)cc1)NNC(=S)NCc1ccccc1 | 3% | 6 | 72 | -0.2 | -2.8 | 2.6 | 47
COC(=O)c1ccc2c(c1)C(C)(C)C(/C=C/c1ccccc1O)=[N+]2C | -1%&-2% | 62* | 87* | 37* | -20 | 3.9 | 3
CCSC1=NCCN1C(=O)C(C)(C)Oc1ccc(Cl)cc1 | . | 6 | . | 1.8 | 2.4 | 6.2 | 22
Cc1ccc(-n2c3c(cc(C(=O)NC4CCSC4=O)c2=O)C(=O)CCC3)cc1 (centres undefined) | 3% | -2 | . | -0.6 | 3.8 | 3.4 | 9
Cc1cc(C)cc(N(CC(=O)NCC2CCCO2)S(=O)(=O)c2c(C)noc2C)c1 (centres undefined) | -2% | 9 | -5 | 5.6 | 4.0 | 0.8 | 6
COc1ccc(-c2cc(C(=O)N(C)CC(=O)Nc3ccccc3Br)c3ccccc3n2)cc1OC | 44% | 18 | -6 | 1.5 | -0.7 | 1.4 | 8
CCC(Sc1nc(-c2ccccc2)c(C#N)c(=O)[nH]1)C(=O)Nc1cc(C)on1 (centres undefined) | -5% | 1 | 22 | -2.4 | -8.2 | 6.4 | -1
CCCCc1c(C)[nH]c2nc3ccccc3n2c1=O | -2% | -11 | -5 | -3.1 | -2.8 | -2.1 | 36
Cc1ccc(/C=C2\Sc3ccccc3C2=O)s1 | 2% | 5 | . | -0.9 | 3.3 | -2.2 | -28
CC1(c2ccc3noc(-c4ccc(F)cc4)c3c2)OCCO1 | 18% | 1 | . | -14 | 1.6 | -2.1 | 11
COc1ccc(OC)c(C2CC(=O)N3CN(c4ccccc4F)CSC3=C2C#N)c1 (centres undefined) | 10% | 6 | 79* | -3.0 | -0.3 | -41 | -1
Nc1nonc1C(=O)N1CCCC1 | 26% | -1 | -3 | -4.0 | -1.5 | 9.9 | 11
Cc1ccc(C(NC(=O)c2ccccc2)C(Cl)(Cl)Cl)cc1 (centres undefined) | 3% | 6 | 1 | -1.4 | -3.1 | 1.1 | -19
CN(CC1COc2ccccc2O1)C(=S)NC1CCCCC1 (centres undefined) | . | -14 | -3 | -0.5 | 9.8 | 1.0 | -25
COc1ccc(C(=O)N/C(=C\c2cc(OC)c(OC)cc2[N+](=O)[O-])C(=O)NCCO)cc1 | 19% | 0 | . | 0.5 | 1.3 | . | -4
COc1cccc(C(c2c(O)nc(SC)n(C)c2=O)c2c(O)nc(SC)n(C)c2=O)c1 | 20% | -4 | 3 | -0.6 | -1.3 | 0.6 | 21
CCOc1ccccc1NC(=O)C(OC(=O)c1ccc(N(C)C)cc1)c1ccccc1 (centres undefined) | 3% | -9 | 0 | 1.3 | 1.1 | 3.2 | 6
COc1ccc(N/C(C)=C/C(=O)c2ccccc2)cc1 | -7% | -4 | . | 0.9 | 5.0 | 2.9 | 17
O=C(c1cc2cc(Br)ccc2o1)N1CCCCC1 | 32% | -8 | . | 1.5 | 0.0 | -6.2 | ?
Fc1cccc(Cl)c1Cn1nnc2c(-n3ccnc3)ncnc21 | -2% | 17 | -16 | 1.9 | -5.6 | 2.6 | 15

Sorted by value in ALR H2O2 inh (high to low): 6 of the compounds above
| mol | ALR H2O2 inh |
| --- | --- |
| COC(=O)c1ccc2c(c1)C(C)(C)C(/C=C/c1ccccc1O)=[N+]2C | 87* |
| Cc1ccc(C(NC(=O)c2ccccc2)C(Cl)(Cl)Cl)cc1 (centres undefined) | 1 |
| CCOc1ccccc1NC(=O)C(OC(=O)c1ccc(N(C)C)cc1)c1ccccc1 (centres undefined) | 0 |
| O=C(NC12CC3CC(CC(C3)C1)C2)N1CCCC(CO)C1 (centres undefined) | -3 |
| COc1ccc(CNC(=O)C[C@H]2C(=O)N(Cc3ccc(OC)cc3)C[C@@H]2Cc2ccccc2)cc1 | -13 |
| Fc1cccc(Cl)c1Cn1nnc2c(-n3ccnc3)ncnc21 | -16 |

Sorted by length of the SMILES (low to high): some entries from above.
SMILES | Vif TR-FRET | Beta2AR agonist | ALR H2O2 inh | HNF4A DNA FP | LANA-H2A inh | RanGTP-Imp inh | Calb FLC
Nc1nonc1C(=O)N1CCCC1 | 26% | -1 | -3 | -4.0 | -1.5 | 9.9 | 11
CCCCc1c(C)[nH]c2nc3ccccc3n2c1=O | -2% | -11 | -5 | -3.1 | -2.8 | -2.1 | 36
Fc1cccc(Cl)c1Cn1nnc2c(-n3ccnc3)ncnc21 | -2% | 17 | -16 | 1.9 | -5.6 | 2.6 | 15

Other results
SMILES | Vif TR-FRET | Beta2AR agonist | ALR H2O2 inh | HNF4A DNA FP | LANA-H2A inh | RanGTP-Imp inh | Calb FLC
O=C(O)c1ncc(-c2ccccc2)cn1 | 7% | -1 | -4 | 3.0 | 2.4 | 7.0 | -7
Cc1cc(C)cc(NS(=O)(=O)c2ccc(NC(=O)c3ccccc3C(=O)O)cc2)c1 | . | 15 | 1 | 1.4 | 0.3 | 5.0 | 4
COC(=O)c1cc(C(=O)OCC(=O)Nc2ccccc2OC(F)F)cc([N+](=O)[O-])c1 | . | -1 | -4 | 0.9 | -3.4 | -0.5 | 2
Cc1cccc(C2=NNC(=O)C(c3ccc(Cl)cc3)C2)c1 (centres undefined) | . | 3 | 3 | -0.1 | -1.6 | 2.4 | 3
Cc1ccc(S(=O)(=O)Nc2cccc3cccnc23)c([N+](=O)[O-])c1 | . | 13 | -5 | 0.3 | 3.1 | 8.6 | 4
O=C(CS(=O)(=O)Cc1ccccc1)Nc1nnc(C2CCCCC2)s1 | 19% | 6 | -28 | 0.9 | 2.4 | 1.6 | -1
Cc1ccc(C(=O)N(Cc2cccs2)C2CCS(=O)(=O)C2)cc1 (centres undefined) | . | 2 | -26 | 4.5 | 0.0 | 5.2 | -3
CC(=O)N/C(=C\c1ccccc1)C(=O)OCC(=O)N(C)C1CCS(=O)(=O)C1 (centres undefined) | . | -2 | -3 | 1.7 | -3.1 | . | .
CC(C(=O)Nc1ccccc1Cl)c1ccc([N+](=O)[O-])cc1 (centres undefined) | . | -19 | 15 | 0.0 | -2.7 | 4.8 | -19
Cn1nc(C(F)(F)F)c2cc(C(=O)O)sc21 | 0% | 6 | -26 | -7.1 | -5.8 | -3.0 | 27
CCc1ccc(S(=O)(=O)NCC2(N3CCOCC3)CCCCC2)cc1 | -1% | -4 | -1 | 1.9 | -1.7 | . | .
CCCCCC(=O)Nc1cccc(C2=NOC3(C2)C[C@H](C(N)=O)N(C(=O)c2ccccc2C(=O)c2ccccc2)C3)c1 (some centres undefined) | -1% | -3 | . | -4.2 | -3.9 | -0.3 | 9
COc1ccccc1N(C)S(=O)(=O)c1ccc(Cl)c(C(=O)NCCCN2CCOCC2)c1 | . | 1 | -3 | -5.0 | -1.9 | 6.5 | -9
O=C(NNC(=S)Nc1ccc(Cl)cc1)c1ccccc1OC(F)F | 13% | 9 | . | 2.4 | -2.2 | 2.0 | 102*
COc1cccc(/C=N/NC(=O)CN2CC(c3ccccc3)CC2=O)c1OC (centres undefined) | -4% | 3 | -3 | 1.1 | -2.3 | ? | 21
Cc1nn(Cc2ccc(C(=O)NN)o2)c(C)c1Cl | 0% | 0 | 68 | 1.6 | 2.7 | 2.6 | -14
CCc1cccc(CC)c1NC(=O)C1CN(S(=O)(=O)c2ccccc2)CCN1S(=O)(=O)c1ccccc1 (centres undefined) | 7% | 4 | -2 | 0.1 | -1.4 | -0.5 | 2
COc1cccc(OCc2nnc(-c3cccs3)o2)c1 | 6% | 50* | 1 | -3.2 | 1.2 | -0.2 | 8
COc1cc2c(cc1NC(=O)COCC(=O)O)oc1ccccc12 | -3% | 6 | -4 | 6.4 | -0.6 | -1.2 | 11
COc1cccc(COC(=O)c2cc(=O)[nH]c3ccc(S(=O)(=O)N4CCOCC4)cc23)c1OC | -3% | -1 | -1 | -4.3 | -0.6 | 0.1 | 2
C/C(=C(\C#N)C(=O)NC1CCCCC1)N(C)C | -2% | -5 | -12 | 0.2 | -5.1 | . | .
COc1ccc(C(=O)NCc2nnc(SCC(=O)Nc3cc(OC)ccc3OC)o2)cc1 | . | 2 | -15 | 1.3 | -4.2 | 2.2 | -28
CCN(CC)CCCN(Cc1cc2cc3c(cc2[nH]c1=O)OCCO3)C(=O)Nc1ccc(F)cc1 | 0%&3% | -1 | -11 | 0.8 | -3.3 | -2.5 | -2
CC(OC(=O)c1cc(=O)[nH]c2ccccc12)C(=O)N1C(C)CCCC1C (centres undefined) | -13% | -1 | . | -2.6 | . | . | .
CCOC(=O)C1CCN(c2c(NCc3ccc(C(=O)NCCC(C)C)cc3)c(=O)c2=O)CC1 | -6% | 6 | -13 | -0.2 | -1.2 | -0.5 | -6
Cc1c(NC(=O)C(C)OC(=O)c2cc(-c3cccc4ccccc34)nc3ccccc23)c(=O)n(-c2ccccc2)n1C (centres undefined) | . | -4 | -9 | -2.6 | 5.1 | 5.5 | 1
CN(CC(=O)Nc1ccc(N2CCOCC2)cc1)C(=O)c1cccc(Cl)c1Cl | 28% | 6 | 74 | -0.6 | -5.5 | 0.1 | 5
COc1cccc(C2C3=C(CCCC3=O)Nc3[nH]n(-c4ccccc4)c(=O)c32)c1 (centres undefined) | 6% | 4 | 78* | 0.2 | -6.3 | 3.4 | 29
O=C(CCNC(=O)c1ccc(Cl)cc1)Nc1ccccc1Cl | -3% | 15 | -5 | 2.9 | -2.7 | 0.6 | -3

Laid out differently: entries from further up.
mol,Vif TR-FRET,Beta2AR agonist,ALR H2O2 inh,HNF4A DNA FP,LANA-H2A inh,RanGTP-Imp inh,Calb FLC
CC(C(=O)Nc1ccccc1Cl)c1ccc([N+](=O)[O-])cc1 (centres undefined),.,-19,15,0.0,-2.7,4.8,-19
COc1cc2c(cc1NC(=O)COCC(=O)O)oc1ccccc12,-3%,6,-4,6.4,-0.6,-1.2,11
